# Source: PubChem
# Arbovirus anti: antivirals against arbovirus infection; arbovirus infection cell-based antiviral screen; inhibition, % at 10 µM; hit rate 0.37% among 200,000; AID 1251;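 active = inhibition from about 30%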;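 also: bluetongue infection of BSR cells; cell survival read as ATP light after 72 h; 0% = infected wells without compound and 100% = uninfected wells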
# Mtb bLac sens: beta-lactam sensitization of Mtb H37Rv; inhibition, % at 25 µM; M. tuberculosis H37Rv growth with meropenem, percent inhibition; hits of this screen are not shown here; AID 434955; hit rate 0.27% among 330,000;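 active = about 74% or more and at least 40 points above the plate without the antibiotic, then above 30% in a dose series; inconclusive = first-round hits that could not be retested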;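 also: growth measured after seven days incubation then overnight dye step; 0% = bacteria only wells and 100% = bacteria with antibiotic; twin plates without the antibiotic show which effects depend on it; some results filed as inactive read as strong as hits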
# Mtb H37Rv: M. tuberculosis H37Rv growth inhibitors, H37Rv strain (AID 1626); M. tuberculosis H37Rv growth inhibition; higher % means a stronger effect; hit rate 0.95% among 220,000; one-dose inhibition, % at 10 µM; IC50 in µM for titrated hits;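 active = confirmed in a dose series; inconclusive = inhibition above 80% but not taken into the dose series; inactive = below 80% or under 30% at every dose of the series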;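 also: bacteria incubated seven days before Alamar blue readout; 0% = bacteria only wells and 100% = bacteria with antibiotic wells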
# RecA intein inh: Mtb RecA intein splicing inhibition | AID 2221 | hit rate 0.75% among 290,000 | inhibition, %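 (about 9 µM by stock and volumes)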 | P9WHJ3 | cell-free RecA intein splicing, fluorescence; in the data active = inhibition above about 30%; inconclusive = no clear call, values can overlap the other calls;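 also: 0% = vehicle wells and 100% = reference inhibitor control wells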
# Target sequence (P9WHJ3 whole entry, looked up): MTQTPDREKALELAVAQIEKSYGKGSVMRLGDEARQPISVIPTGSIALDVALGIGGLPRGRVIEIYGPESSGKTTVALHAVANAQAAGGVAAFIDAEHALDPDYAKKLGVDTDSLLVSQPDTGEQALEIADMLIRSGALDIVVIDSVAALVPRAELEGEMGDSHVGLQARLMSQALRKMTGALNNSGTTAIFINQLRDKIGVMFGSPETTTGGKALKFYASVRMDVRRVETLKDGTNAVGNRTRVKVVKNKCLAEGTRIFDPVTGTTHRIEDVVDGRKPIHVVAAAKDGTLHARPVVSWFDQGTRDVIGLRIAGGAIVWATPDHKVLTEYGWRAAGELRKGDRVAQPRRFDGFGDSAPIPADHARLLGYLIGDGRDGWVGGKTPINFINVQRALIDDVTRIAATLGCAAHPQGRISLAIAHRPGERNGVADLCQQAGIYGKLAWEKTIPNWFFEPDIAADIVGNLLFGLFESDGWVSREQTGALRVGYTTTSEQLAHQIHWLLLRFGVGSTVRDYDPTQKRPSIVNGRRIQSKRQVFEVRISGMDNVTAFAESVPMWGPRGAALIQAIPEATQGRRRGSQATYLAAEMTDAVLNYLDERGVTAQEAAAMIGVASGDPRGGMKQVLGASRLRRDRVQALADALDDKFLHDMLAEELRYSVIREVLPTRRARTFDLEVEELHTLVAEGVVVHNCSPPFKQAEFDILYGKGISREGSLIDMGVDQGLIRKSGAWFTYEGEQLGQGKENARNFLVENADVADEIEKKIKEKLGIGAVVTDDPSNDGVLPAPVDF
# YopH PTP inh: blocks Yersinia enterocolitica YopH tyrosine phosphatase. fluorescence Ex485/Em525. inhibition, %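 (about 10 µM by stock and volumes)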. hit rate 0.16% among 140,000. AID 898;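 active = inhibition of 50% or more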;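 also: controls were vehicle for no effect and minimum signal wells for full effect; inactives centre near -20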
# Arbovirus anti repeat: further read-out of Arbovirus anti, marked with its call; inhibition, %; measured here: 10K subset replicate screen; many hits read low in the repeat;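 first of two repeat runs on a subset; 0% = infected and 100% = uninfected wells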
# The depositor's hits bear a star; ? = inconclusive; nt = no result given; & = joins results of further samples. An excerpt; rates above refer to the full screens.
SMILES,Arbovirus anti,Mtb bLac sens,Mtb H37Rv,RecA intein inh,YopH PTP inh,others
Cc1ccc(S(=O)(=O)NC(=O)Nc2ncc3c(n2)CC(c2ccco2)CC3=O)cc1 (configuration not stated),-5,11,-4%,6.3,-11,
COc1ccc(CN2CCN(C3CCC3)CC2CCO)cc1C (configuration not stated),nt,-7,nt,0.0,nt,
COc1ccc(-n2nnc3c(SCc4ccccc4)ncnc32)cc1,6,2,8%,-0.5,-17,
Cc1no[n+]([O-])c1COc1ccc(/C=N/n2nnnc2N)cc1,1,6,-1%,2.5,-30,
CCOc1ccc(-c2c(C(=O)N/N=C(\C)c3ccncc3)nnn2-c2nonc2N)cc1,nt,8,nt,-1.3,nt,
NC1=NC(c2ccc(Cl)cc2)n2c(nc3ccccc32)N1 (configuration not stated),-3,-9,4%,1.2,-34,
CCC(NS(=O)(=O)c1ccc(OC)cc1)C(=O)O (configuration not stated),4,3,-12%,1.5,-29,
Cc1ccc(NS(=O)(=O)c2cc([N+](=O)[O-])ccc2NNC(=S)Nc2cccc(Cl)c2)c(C)c1,-42,6,16%,3.4,-1,
Cc1ccc(OCc2cc(C(=O)N3CCC(C(O)C(C)C)CC3)no2)cc1C (configuration not stated),nt,-1,nt,2.0,nt,
COc1ccc2oc(=O)c(-c3nc4ccccc4o3)cc2c1,-19,80,2%,-41,20,
CCOc1ccc2nc(SCC(=O)N(C)C3CCS(=O)(=O)C3)[nH]c2c1 (configuration not stated),2,-9,-8%,-6.7,-23,
O=C(NCc1ccco1)/C(=C\c1ccccc1)NC(=O)c1ccccc1,nt,-5,nt,2.4,nt,

# Overlap with the part before: 3 compounds, followed by the next part.
SMILES,Arbovirus anti,Mtb bLac sens,Mtb H37Rv,RecA intein inh,YopH PTP inh,others
COc1ccc2oc(=O)c(-c3nc4ccccc4o3)cc2c1,-19,80,2%,-41,20,
CCOc1ccc2nc(SCC(=O)N(C)C3CCS(=O)(=O)C3)[nH]c2c1 (configuration not stated),2,-9,-8%,-6.7,-23,
O=C(NCc1ccco1)/C(=C\c1ccccc1)NC(=O)c1ccccc1,nt,-5,nt,2.4,nt,
O=c1[nH]cnc(O)c1C(c1cccc([N+](=O)[O-])c1)c1c(O)nc[nH]c1=O,nt,2,-4%,-1.6,nt,
CC(C)c1cc(-c2cc(C(=O)Nc3ccccc3)on2)nc(NCC2CC2)n1,nt,99,0%,0.1,nt,
CC(C)(C)NC(=O)C(c1ccncc1)N(C(=O)Cn1nnc(-c2ccc(F)cc2)n1)c1ccc(F)cc1 (configuration not stated),0,-7,6%,-0.5,nt,
Cc1ccc(-c2nnc(N)o2)cc1,-7,1,7%,-4.3,-7,
CCCC1=[N+](CC(=O)c2ccc(C)cc2)CCn2cccc21,9,12,5%,-1.5,-29,
CCOC(=O)N1CCN(C(=O)/C(=C/c2cccc3ccccc23)NC(=O)c2ccc(OC)cc2)CC1,-2,36,5%,4.5,-28,
COC(=O)c1ccc(Oc2cc(C)nc(SC)n2)cc1,-14,5,-8%,-0.6,-88,
COc1cccc(OCC(=O)N2CCN(C)CC2)c1,4,-3,-13%,-2.2,-32,Arbovirus anti repeat=0
CCCNc1c(N)c(=O)c1=O,nt,21,-1%,-1.0,nt,
O=C(CCc1nnc(CCCCc2ccccc2)o1)N1CCCC(O)C1 (configuration not stated),nt,6,-8%,-0.9,nt,
COC(=O)C1ON2OC(C(=O)OC)C(C(=O)OC)C2C1CC(C)=O (configuration not stated),7,1,-5%,-0.3,-29,
COc1ccc(CCC(=O)NNC(=S)NCc2ccc(F)cc2)cc1,5,-2,-6%,-3.0,nt,
COc1ccc(C(C)=O)cc1CSc1nnc(-c2ccncc2)o1,nt,3,nt,0.1,nt,
O=C(CCS(=O)(=O)c1ccc(Br)cc1)NCCc1ccc(Cl)cc1,nt,-4,nt,0.1,nt,
C=C(C)C1Cc2c(C)nn(-c3ccccc3)c2C1 (configuration not stated),-6,52,4%,2.7,-38,
Cc1c(NC(=O)C23CC4CC(CC(C4)C2)C3)c(=O)n(-c2ccccc2)n1C,nt,2,nt,0.0,nt,
CCN(CC(=O)NC1CCCCCC1)S(=O)(=O)c1ccccc1,3,-3,-10%,1.6,-12,
CSCCC(NC(=O)c1c(C)oc2c1CCCC2)C(=O)O (configuration not stated),13,-11,-5%,-1.5,-38,Arbovirus anti repeat=-5
CCOc1cccc(C(=O)NC(=S)Nc2ccc(N3CCN(CC)CC3)cc2)c1,-5,-10,5%,-1.3,nt,
C#CCOCCOCCOCCNc1nc(N2CCN(C(=O)[C@H](CCCCN)n3cc([C@@H](N)CO)nn3)CC2)nc(N2CCN(C(=O)[C@H](Cc3ccc(O)cc3)n3cc([C@@H](N)CC(C)C)nn3)CC2)n1,2,2,6%,3.5,nt,
Cn1c(SCc2ccccc2)nnc1-c1ccc(O)cc1,nt,2,nt,0.2,nt,
COc1ccc(Nc2ccc(C(N)=O)cc2[N+](=O)[O-])cc1,13,15,-2%,4.0,nt,
CCC(=O)OCn1nnc2ccccc2c1=O,-2,70,11%,-4.2,nt,
O=C(NCC(F)(F)F)Nc1ccccn1,-2,-3,4%,-3.9,-6,
Cc1ccccc1NC(=O)CCS(=O)(=O)c1ccc(Br)s1,nt,1,nt,0.0,nt,
COC(=O)c1cc2ccccc2n1S(=O)(=O)c1ccccc1,nt,5,nt,5.7,nt,
COc1cccc(C(C(=O)NC2CCCC2)N(CCC(C)C)C(=O)CCC(=O)Nc2cc(C)on2)c1 (configuration not stated),nt,-2,nt,-1.2,nt,
Oc1ccccc1N1CCN(CC(O)COC2CCCc3ccccc32)CC1 (configuration not stated),nt,8,nt,4.9,nt,
C=CCN1C=CC=C/C1=C1\SC(=S)N(C)C1=O,-1,-8,-2%,-14,nt,
CCCC(=O)Nc1ccc(C(=O)NCC(=O)OCC)cc1,12,-4,-14%,-0.7,-26,
COc1ccc(-n2c(C)n[nH]c2=O)cc1,15,-6,-6%,3.1,-8,
Cc1cc(-c2cccnc2)c(C#N)c(SCc2cccc(F)c2)n1,-11,1,9%,0.5,-11,
COc1ccc2nc(SCC(=O)Nc3nonc3C)[nH]c2c1,-6,-8,-3%,-3.5,nt,
COc1ccc(C2NC(=O)NC(C)=C2C(=O)OC2CCCCC2)cc1OC (configuration not stated),nt,1,nt,0.7,nt,
COC(=O)CSc1nc(-c2cccs2)ccc1C#N,-5,32,-2%,2.0,-33,
COc1cccc(-c2nc(CS(=O)(=O)CC(=O)NCCCN3CCN(C)CC3)c(C)o2)c1,nt,2,nt,0.4,nt,
CCOC(=O)COc1ccc2c(c1)C(=O)CC1(CCCCC1)O2,-3,100,?,-16,-1,
Cc1nnc(SCc2ccc(F)cc2)n1NC/C=C/c1ccccc1,9,-10,7%,6.5,-36,
Cc1c(NS(=O)(=O)c2ccc3[nH]c(=O)[nH]c3c2)c(=O)n(-c2ccccc2)n1C,5,-11,-8%,2.5,27,
COC(=O)c1oc2c(c1C)C(=O)CC(C)(C)C2,6,-2,5%,1.4,nt,
Cc1ccc(-c2nnn(CC(=O)N(CC(=O)NC3CCCCC3)c3ccc(F)c(Cl)c3)n2)o1,1,-3,2%,0.2,1,
O=C(COC(=O)c1c2c(nc3ccccc13)/C(=C\c1cccs1)CCC2)Nc1ccccc1Cl,4,16,-4%,-0.7,-13,
CN(C)CCC(c1ccc(Br)cc1)c1ccccn1 (configuration not stated),4,3&2,-4%,-2.3,-24,
CCOc1cccnc1Sc1ccccc1,nt,2,nt,-0.4,nt,
Cc1cnccc1CN(C)Cc1cn(C)nc1-c1ccc(Oc2ccccc2)cc1,0,-5,8%,9.2,nt,
COc1ccc(Cl)cc1C(=O)NCc1cnn(C)c1C,-2,-6,-5%,0.1,-31,
Cc1ccc(OCCC(=O)OCC(=O)Nc2ccccc2)cc1,nt,-9,nt,-1.0,nt,
COc1ccc(S(=O)(=O)N2CCSC2c2ccccc2)cc1 (configuration not stated),-7,?,-3%,4.7,-20,
CC1(C)[C@@H](O)CC[C@]2(C)C3C(O)C=C4[C@H]5C[C@@](C)(CO)CC[C@]5(C)CC[C@]4(C)[C@]3(C)CC[C@@H]12 (some centres not stated),nt,-8,-6%,5.9,nt,
COc1ccc(Cl)cc1C(=O)OCC(=O)N(CC(C)C)c1c(N)n(Cc2ccccc2)c(=O)[nH]c1=O,nt,-9,nt,3.2,nt,
Cc1ccc(-n2c(SCc3nc4ccccc4[nH]3)nnc2-c2ccncc2)cc1,2,-9,6%,1.5,-25,
CCNC(=O)NC1(C(=O)N2CCC(Cc3ccccc3)CC2)CCCCC1,nt,-3,nt,-2.4,nt,
CC(C)(C)NC(=S)NCc1ccc2c(c1)OCO2,3,6,1%,0.0,-19,
COC(=O)c1cc(NC(=O)CN2CCN(C(C)=O)CC2)cc(C(=O)OC)c1,5,0,-6%,0.1,nt,
Cc1cccc(CNc2ncc(-c3cccc([N+](=O)[O-])c3)n2C)c1,-7,5,-5%,-1.9,nt,
CN1CCN(c2nc3c(c(=O)n(C)c(=O)n3C)n2Cc2cccc(Br)c2)CC1,nt,1,nt,-0.2,nt,
CC1(C)Cc2c(cnn2-c2ccc(F)cc2)C(NC(=O)CCn2cncn2)C1 (configuration not stated),nt,-10,nt,3.9,nt,
CC1CC(NS(=O)(=O)c2cccs2)CC(C)(C)C1 (configuration not stated),2,2,-6%,1.7,-7,
CCC(c1c(C)[nH]oc1=O)c1c(C)[nH]oc1=O,-1,-8,-10%,-0.6,-31,
CCC(Sc1ccc2nnc(-c3ccc(OC)c(OC)c3)n2n1)C(=O)O (configuration not stated),2,-12,-13%,-0.7,-1,

# Following part:
SMILES,Arbovirus anti,Mtb bLac sens,Mtb H37Rv,RecA intein inh,YopH PTP inh,others
COc1ccc(OC)c(S(=O)(=O)Nc2ccccc2F)c1,0,-5,3%,-2.1,-37,
O=C(Nc1ccc(S(=O)(=O)Nc2cnc3ccccc3n2)cc1)c1ccc([N+](=O)[O-])cc1Cl,nt,-9,nt,0.5,nt,
COc1ccccc1CNCC(O)Cn1c2ccccc2c2ccccc21 (configuration not stated),-39,99,?,1.9,-12,
CCOc1cc(C(=O)Nc2cc(=O)n(C)c(=O)n2C)cc(OCC)c1OCC,6,-12,-14%,-0.6,-29,
CN1/C(=C/C2CC(=O)NC2=O)C(C)(C)c2ccccc21 (configuration not stated),3,-3,4%,nt,-32,
CCS(=O)(=O)N1CCN(c2ccc(C(=O)N3CCOCC3)cc2[N+](=O)[O-])CC1,nt,-8,3%,-3.4,nt,
COc1ccc(Br)cc1/C=N/n1c(COc2ccccc2)n[nH]c1=S,nt,2,nt,-2.1,nt,
CCCc1ccc(NS(=O)(=O)c2c(C)oc(C)c2C(=O)OC)cc1,nt,-4,4%,5.1,nt,
Cc1cccc(C)c1OCCN1CCOCC1,nt,-3,nt,-2.1,nt,
COCCNC(=O)C(OC(=O)CC1Sc2ccccc2NC1=O)c1ccccc1 (configuration not stated),5,-7,0%,-0.5,3,
CC(=O)c1cccc(NC(=O)C23CC4CC(C2)CC(n2cncn2)(C4)C3)c1,7,0,0%,1.4,-37,
CCC1Oc2ccccc2N(CC(=O)NCCCN2CCN(Cc3ccccc3)CC2)C1=O (configuration not stated),-11,-4,-7%,1.2,-40,

# Of the compounds above, six have a nitro group on carbon:
SMILES,Arbovirus anti,Mtb bLac sens,Mtb H37Rv,RecA intein inh,YopH PTP inh,others
Cc1ccc(NS(=O)(=O)c2cc([N+](=O)[O-])ccc2NNC(=S)Nc2cccc(Cl)c2)c(C)c1,-42,6,16%,3.4,-1,
O=c1[nH]cnc(O)c1C(c1cccc([N+](=O)[O-])c1)c1c(O)nc[nH]c1=O,nt,2,-4%,-1.6,nt,
COc1ccc(Nc2ccc(C(N)=O)cc2[N+](=O)[O-])cc1,13,15,-2%,4.0,nt,
Cc1cccc(CNc2ncc(-c3cccc([N+](=O)[O-])c3)n2C)c1,-7,5,-5%,-1.9,nt,
O=C(Nc1ccc(S(=O)(=O)Nc2cnc3ccccc3n2)cc1)c1ccc([N+](=O)[O-])cc1Cl,nt,-9,nt,0.5,nt,
CCS(=O)(=O)N1CCN(c2ccc(C(=O)N3CCOCC3)cc2[N+](=O)[O-])CC1,nt,-8,3%,-3.4,nt,

# (more compounds)
SMILES,Arbovirus anti,Mtb bLac sens,Mtb H37Rv,RecA intein inh,YopH PTP inh,others
CCc1cc(=O)oc2cc(OCC(=O)NCC3CCC(C(=O)O)CC3)ccc12 (configuration not stated),nt,-8,nt,-0.8,nt,
CN(C)S(=O)(=O)c1ccc(C(=O)Nc2nnc(-c3ccco3)o2)cc1,12,88,-15%,-0.6,nt,
Cn1cc(CCC(=O)N2CCCC(N3CCN(c4ccccc4F)CC3)C2)cn1 (configuration not stated),nt,-1,nt,3.2,nt,
CC(C)(C)c1cc(P(=O)(c2ccccc2)c2ccccc2)ccc1O,nt,-7,-4%,3.1,nt,
COc1ccc(OC)c(NC(=O)CSc2nc3ccccc3c3nc4ccccc4n23)c1,-8,nt,4%,nt,-13,
